YopH inh = YopH tyrosine phosphatase inhibitors, primary screen, biochemical, fluorescence Ex485/Em525 | YopH tyrosine phosphatase [Yersinia enterocolitica] | inhibition, %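 (about 10 µM by stock and volumes)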 | 140,000 tested, 0.16% active | AID 898, 2007;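 active = inhibition of 50% or more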;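 note: controls were vehicle for no effect and minimum signal wells for full effect; inactives centre near -20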
RecA intein inh = Mtb RecA intein splicing inhibitors, primary screen, biochemical, fluorescence, HTS; Protein RecA (Mycobacterium tuberculosis (strain ATCC 25618 / H37Rv)), P9WHJ3; cell-free RecA intein splicing; inhibition, %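 (about 9 µM by stock and volumes)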; 290,000 tested, 0.75% active; AID 2221, 2009; in the data active = inhibition above about 30%; inconclusive = no clear call, values can overlap the other calls;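 note: 0% = vehicle wells and 100% = reference inhibitor control wells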
Target sequence (P9WHJ3 whole entry, looked up): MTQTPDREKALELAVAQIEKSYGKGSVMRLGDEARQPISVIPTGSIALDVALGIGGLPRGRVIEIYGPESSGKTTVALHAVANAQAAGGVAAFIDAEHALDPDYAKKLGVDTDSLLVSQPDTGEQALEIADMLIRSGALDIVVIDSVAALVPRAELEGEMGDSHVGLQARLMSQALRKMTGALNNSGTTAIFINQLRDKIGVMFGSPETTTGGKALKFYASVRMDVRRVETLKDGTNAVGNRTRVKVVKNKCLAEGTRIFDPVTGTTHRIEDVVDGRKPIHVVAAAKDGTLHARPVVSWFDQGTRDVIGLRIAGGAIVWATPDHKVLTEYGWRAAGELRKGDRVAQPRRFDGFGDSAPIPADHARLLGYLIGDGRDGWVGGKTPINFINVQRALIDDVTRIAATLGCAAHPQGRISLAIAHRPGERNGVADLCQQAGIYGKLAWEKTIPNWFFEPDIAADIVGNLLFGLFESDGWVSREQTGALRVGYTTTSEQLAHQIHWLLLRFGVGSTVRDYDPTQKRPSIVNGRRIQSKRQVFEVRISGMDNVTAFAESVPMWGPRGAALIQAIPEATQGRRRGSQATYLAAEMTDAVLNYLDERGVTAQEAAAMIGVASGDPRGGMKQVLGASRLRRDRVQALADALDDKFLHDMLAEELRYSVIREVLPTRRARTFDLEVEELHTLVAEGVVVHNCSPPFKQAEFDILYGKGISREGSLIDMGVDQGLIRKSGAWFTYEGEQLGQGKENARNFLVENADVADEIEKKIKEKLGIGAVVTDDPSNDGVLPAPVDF
Mtb betalactam = beta-lactam sensitization of Mtb H37Rv, H37Rv; M. tuberculosis H37Rv growth with meropenem, percent inhibition; hits of this screen are not shown here; 330,000 tested, 0.27% active; inhibition, % at 25 µM; AID 434955, 2010;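 active = about 74% or more and at least 40 points above the plate without the antibiotic, then above 30% in a dose series; inconclusive = first-round hits that could not be retested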;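 note: growth measured after seven days incubation then overnight dye step; 0% = bacteria only wells and 100% = bacteria with antibiotic; twin plates without the antibiotic show which effects depend on it; some results filed as inactive read as strong as hits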
Arbovirus anti = antivirals against arbovirus infection, primary screen, cell-based, full library, 10K replicate subset. 200,000 tested, 0.37% active. inhibition, % at 10 µM. arbovirus infection cell-based antiviral screen;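 active = inhibition from about 30%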;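 note: bluetongue infection of BSR cells; cell survival read as ATP light after 72 h; 0% = infected wells without compound and 100% = uninfected wells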
Mtb H37Rv = M. tuberculosis H37Rv growth inhibitors, H37Rv strain (AID 1626). M. tuberculosis H37Rv growth inhibition; higher % means a stronger effect. one-dose inhibition, % at 10 µM; IC50 in µM for titrated hits. 220,000 tested, 0.95% active;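 active = confirmed in a dose series; inconclusive = inhibition above 80% but not taken into the dose series; inactive = below 80% or under 30% at every dose of the series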;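 note: bacteria incubated seven days before Alamar blue readout; 0% = bacteria only wells and 100% = bacteria with antibiotic wells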
Arbovirus anti repeat = also measured in Arbovirus anti; calls as there; inhibition, %; measured here: 10K subset replicate screen; many hits read low in the repeat;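 first of two repeat runs on a subset; 0% = infected and 100% = uninfected wells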
Starred values were filed as active, the others as inactive; ? = inconclusive; nt = not tested or not shown. This is a subset. The share of hits here may be higher or lower than overall.

SMILES	YopH inh	RecA intein inh	Mtb betalactam	Arbovirus anti	Mtb H37Rv	others
Cc1ccc(Cn2cccc2/C=C2/C(=N)N3C=CSC3=NC2=O)cc1	-5	5.6	5	-6	2%
O=C(/C=C/c1ccc2c(c1)OCO2)N1CCCCC1	nt	-1.3	1	nt	nt
O=C(O)c1c(N2CCCCC2)ccc([N+](=O)[O-])c1N1CCCCC1	nt	3.7	12	nt	2%
NC(=O)CSc1oc(-c2ccco2)nc1S(=O)(=O)c1ccccc1	nt	0.7	-8	nt	nt
COc1ccc(CNC(=O)CSCc2cccc(Cl)c2)cc1	-10	-0.2	-2	-12	6%
COc1ccc(NC(=O)c2ccccc2Sc2ccc(NC(C)=O)nc2)cc1	nt	0.5	-1	1	-1%
N#Cc1cnc(SCC(=O)N2CCCC2)nc1N	nt	-4.3	-3	nt	nt
Cc1sc2nc(C3CC3)nc(SCC(=O)N3c4ccccc4CC3C)c2c1C (stereo not given)	-27	-2.2	1	6	?
O=C(Nc1ccccn1)c1ccc(Cl)c([N+](=O)[O-])c1	nt	1.9	1	-2	-7%
COCCn1c(SCC(=O)N2CCOCC2)nnc1-c1ccncc1	nt	-0.2	-2	nt	nt
COc1cc(/C=N/NC(=O)c2cncc(Br)c2)ccc1OC(=O)c1ccc2c(c1)OCO2	6	nt	nt	2	-4%
Cc1ccc(N2CC(C(=O)Nc3ccc(S(=O)(=O)NCC4CCCO4)cc3)CC2=O)cc1C (stereo not given)	nt	1.6	-3	nt	nt
Cc1cccc(Cn2nnc3c2C(=O)c2ccccc2C3=O)c1	-46	37*	50	-10	0%
COc1cccc(-n2nnc3c(=O)n(Cc4ccccc4Cl)cnc32)c1	-27	-0.3	-4	9	-2%
O=C(c1cc(Cl)nc2ccccc12)N1CCCCC1	-46	2.1	7	0	12%
Cc1ccsc1/C=N/N1CCOCC1	nt	0.3	4	1	-3%
CCSc1nc(-c2ccc(OC)cc2)n(-c2nc3ccccc3s2)n1	37	0.4	2	-5	9%
CSc1ccc(-c2nc(CSCC(=O)N3CCOCC3)c(C)o2)cc1	-23	2.4	-1	1	-6%
CCOC(=O)Nc1ccc(S(=O)(=O)N2CCC(C)CC2)cc1	nt	0.8	-3	-12	6%
Cc1cc2oc(C(=O)Nc3ccc(S(=O)(=O)Nc4ncccn4)cc3)c(C)c2cc1Cl	nt	-1.9	17	nt	nt
O=Cc1ccc2noc(-c3ccc(F)cc3)c2c1	-13	-2.7	80	2	>100µM*
Brc1ccc2c(c1)CNc1c(ncnc1N1CCOCC1)O2	-34	1.2	-5	3	-4%
CC(O)c1cccc(NC(=O)Cc2cccc3ccccc23)c1 (stereo not given)	nt	-3.6	2	-2	-7%
CCC(CC)C(=O)NCc1ccccc1OC	-32	-3.3	-9	11	-6%	Arbovirus anti repeat=-1
Cc1cccc(-n2ncc3c(NC4CCCCC4)ncnc32)c1	-40	0.9	35	-11	23%

Continued, starting with the last two of the part before.
SMILES	YopH inh	RecA intein inh	Mtb betalactam	Arbovirus anti	Mtb H37Rv	others
CCC(CC)C(=O)NCc1ccccc1OC	-32	-3.3	-9	11	-6%	Arbovirus anti repeat=-1
Cc1cccc(-n2ncc3c(NC4CCCCC4)ncnc32)c1	-40	0.9	35	-11	23%
O=C(CN1CCCCC1)N=Nc1c(O)[nH]c2ccccc12	nt	3.1	-1	0	2%
Cc1cnc(C(=O)Nc2nnc(C(C)C)s2)cn1	7	0.1	61	-13	-11%
CCc1ccc(Nc2nnc(SCn3nnc4ccccc4c3=O)s2)cc1	-21	nt	-4	10	6%
CCOc1ccc(CO[C@@H]2O[C@H](CO)[C@@H](O)[C@H](O)[C@H]2NC(C)=O)cc1OC	nt	-3.3	2	nt	nt
COc1ccccc1/C=C/C=N/NC(=O)c1cnccn1	nt	0.1	2	-9	-3%
CC(=O)c1ccc(NC(=O)C(C)N(C)CC(=O)Nc2ccccc2Cl)cc1 (stereo not given)	nt	-0.9	-5	6	-1%
COc1ccc(-n2nc(C(=O)NCC3CCCO3)c3ccccc3c2=O)cc1 (stereo not given)	nt	-4.3	0	nt	nt
O=C(NCCN1CCOCC1)c1ccc(Cl)c(S(=O)(=O)N2CCCC2)c1	nt	-2.4	-1	nt	nt
C/C(CC(=O)Nc1ccc(OCc2ccccc2)cc1)=N\NC(=O)C(=O)Nc1ccccc1C	-28	-3.2	74	5	-2%
CC(C)C(=O)N=C1SC2CS(=O)(=O)CC2N1Cc1ccccc1 (stereo not given)	-6	8.1	5	5	3%
CC(C)C[C@H](NC(=O)c1nc[nH]c1C(=O)N[C@@H](CCCCNC(=O)OC(C)(C)C)C(=O)OC(C)(C)C)C(=O)OC(C)(C)C	nt	-2.5	-16	nt	14%
Cc1cc(C)c(NC(=O)COC(=O)C2CCC(=O)N2)c(C)c1 (stereo not given)	nt	-1.4	0	8	7%
N#Cc1ccc(NC(=O)COC(=O)CCNS(=O)(=O)c2ccccc2)cc1	-37	-1.0	7	8	0%
COC(=O)C1=C(C)N(C2CCCCC2)C(=O)/C1=C\c1cccs1	nt	-2.8	4	3	2%
O=C(NCCCn1ccnc1)c1ccccc1Cl	nt	-2.0	3	nt	nt
Cc1ccc(C(C(=O)NC2CCCC2)N(Cc2cccs2)C(=O)c2csnn2)o1 (stereo not given)	-12	2.6	6	2	3%
CC(=O)c1ccc(S(=O)(=O)N(CCCO)Cc2cc3cc4c(cc3[nH]c2=O)OCCO4)cc1	nt	0.7	-9	nt	nt
c1ccc2[nH]c(SCc3ccc(-c4nnco4)cc3)nc2c1	-14	0.3	-4	-6	-4%
CC(=O)Nc1cccc(-n2nnc(SCC(N)=O)n2)c1	nt	-1.3	0	nt	-6%
Cc1ccc2c(C)nc(Nc3ncc4c(n3)CCCC4=O)nc2c1	-24	2.7	2	nt	2%
C[C@@H]1C=C(C(=O)O)O[C@H](OCc2ccc(CO)cc2)C1	nt	1.4	-4	2	1%
Cc1ccc(N(C(=O)Cn2nnc3ccccc32)C(C(=O)NCc2ccco2)c2ccc(C)o2)cc1 (stereo not given)	-30	4.1	nt	9	-1%
O=C(O)C1Cc2ccccc2CN1C(=O)COc1ccc(Cl)cc1 (stereo not given)	nt	0.3	-4	-2	-6%
CCCCCc1cc(=O)oc2c(C(CCN3CCCC(C)C3)c3ccc(OC)cc3)c(OC)cc(OC)c12 (stereo not given)	nt	37*	100	nt	2.2µM*
COc1ccc(NC(=O)NC2(C(=O)N3CCCCC3)CCCCC2)cc1	nt	-1.2	-1	nt	nt

In the list so far, these have bromine.
SMILES	YopH inh	RecA intein inh	Mtb betalactam	Arbovirus anti	Mtb H37Rv	others
COc1cc(/C=N/NC(=O)c2cncc(Br)c2)ccc1OC(=O)c1ccc2c(c1)OCO2	6	nt	nt	2	-4%
Brc1ccc2c(c1)CNc1c(ncnc1N1CCOCC1)O2	-34	1.2	-5	3	-4%

More entries
SMILES	YopH inh	RecA intein inh	Mtb betalactam	Arbovirus anti	Mtb H37Rv	others
O=C(NCc1cccnc1)C(=O)NCC1OCCN1S(=O)(=O)c1ccc(F)cc1 (stereo not given)	-34	1.8	0	-7	80%
O=C(N/N=C/c1ccncc1)c1ccc2c(c1)OCO2	nt	0.3	-5	4	5%
CC1CCc2nn(CC(=O)NCCN3CCCCC3C)cc2C1 (stereo not given)	2	-1.4	?	4	-3%	Arbovirus anti repeat=4
O=C(c1ccncc1)N1CCN(c2ccc(F)cc2)CC1	-5	-4.2	4	-6	-7%
CCCc1nnc(SCC(=O)Nc2ccc(OC)cc2)n1N	-18	1.3	-3	-3	-8%
CC(C)(C)c1ccc(/C=C(\C#N)C(=O)NCCN2CCOCC2)cc1	nt	0.5	-2	-7	-3%
O=C(COc1ccccc1)Nc1cc2c3c(c1)CC(=O)N3CCC2	nt	13	-1	nt	nt
c1ccc(-c2csc3ncn4nnnc4c23)cc1	-24	2.6	1	2	0%
O=C(c1ccc(Cl)c(S(=O)(=O)N2CCOCC2)c1)N1CCCC1	nt	-1.5	0	nt	nt
CCCCc1c(C)[nH]c2nc3ccccc3n2c1=O	nt	-0.5	4	nt	nt
CCN1CCN(c2cc3c(nn2)Oc2ccccc2N3C)CC1	1	-0.4	2	5	-1%
O=C(CCN1C(=O)c2ccccc2C1=O)N1CCN(C2c3ccccc3-c3ccccc32)CC1	-39	-1.1	6	5	-8%
O=C(CNS(=O)(=O)c1cccc(Br)c1)NCCCc1ccccc1	nt	5.2	8	nt	nt
Cc1ccccc1NC(=O)CSc1ccc(-c2cccnc2)nn1	nt	-3.9	0	nt	nt
O=C(/C=C/c1ccccc1)Nc1ccc(Br)cn1	nt	1.2	5	-15	-1%
O=C(Cc1ccccc1)Nc1nc2ccccc2[nH]1	1	-0.2	7	2	0%
Oc1ccccc1N1CCN(C(=S)NCc2ccccc2)CC1	nt	0.2	-10	10	-3%
CC1CCCCC1NC(=O)CN1C(=O)NC(C)(c2ccc(OC(F)F)cc2)C1=O (stereo not given)	-5	0.7	-2	-4	-1%
N#Cc1c(NC(=O)CCCN2C(=O)c3ccccc3C2=O)oc(-c2ccccc2)c1-c1ccccc1	-18	0.3	22	19	-5%	Arbovirus anti repeat=6
CC(=O)Nc1cccc([As](=O)(c2cccc(NC(C)=O)c2)c2cccc(NC(C)=O)c2)c1	nt	-0.5	-5	nt	-15%
O=C(COC(=O)c1ccccc1-c1ccccc1[N+](=O)[O-])c1ccccc1	12	4.6	3	-3	-3%
COc1cc2[nH]c(=S)nc(NCCc3ccc(S(N)(=O)=O)cc3)c2cc1OC	nt	-0.5	1	0	4%
COc1cccc(/C=N/n2c(N)c(S(=O)(=O)c3cccs3)c3nc4ccccc4nc32)c1	-20	-0.8	4	-6	-6%
O=C(N/N=C/c1ccc(OC(F)F)cc1)c1ccc(CSc2nc3ccccc3[nH]2)cc1	-13	2.7	-5	-1	-7%
CC(Cl)C(=O)N1c2ccccc2CCc2ccccc21 (stereo not given)	nt	0.2	-7	nt	nt
(next part)
SMILES	YopH inh	RecA intein inh	Mtb betalactam	Arbovirus anti	Mtb H37Rv	others
Cc1nn(-c2ccc(Cl)cc2Cl)c(C)c1C(=O)O	nt	1.4	-3	5	6%
CS(=O)(=O)Nc1ccc(N2CCN(c3ccc(C(F)(F)F)cn3)CC2)nc1	nt	6.1	4	nt	1%
CCOC(=O)c1c(NC(=O)CN2C(=O)CN(C)C2=O)sc(C)c1C	nt	1.9	2	-5	-10%
COCCCN=CC1=C(O)CC(C)(C)CC1=O	-4	1.7	-7	11	0%
Cc1ccc(S(=O)(=O)NC(CC(N)=O)C(=O)O)cc1 (stereo not given)	-29	7.5	2	-4	-2%
COC(=O)C1N[C@@H]([C@@H](NC(=O)COc2ccccc2)C(=O)NC2CC2)SC1(C)C (stereo not given in full)	nt	-0.3	-6	nt	-13%
CCCOc1ccc(C(=O)C(CN2CCOCC2)c2ccccc2)cc1 (stereo not given)	-28	14	100	-38	79%
CCOc1cc(/C=N/NC(=O)c2nnn(-c3nonc3N)c2C)ccc1OCc1cccc(F)c1	nt	0.9	4	nt	nt
C=CCn1c(SCc2ccc(Cl)cc2)nc2cc(C(=O)N3CCC(C(N)=O)CC3)ccc2c1=O	-17	-0.7	61	-3	14%
O=C(CCC(=O)c1cccs1)NCc1cccc(Cl)c1	nt	3.1	-14	nt	nt
CCOc1ccccc1NC(=O)C1C2C=CC(O2)C1C(=O)O (stereo not given)	-46	0.6	-4	3	-4%
COc1ccccc1C1(CCNC(C)c2cccs2)CCOC(C(C)C)C1 (stereo not given)	nt	3.3	-2	nt	3%

Fetched by structure from the entries so far:
SMILES	YopH inh	RecA intein inh	Mtb betalactam	Arbovirus anti	Mtb H37Rv	others
CCCOc1ccc(C(=O)C(CN2CCOCC2)c2ccccc2)cc1 (stereo not given)	-28	14	100	-38	79%
Cc1ccc(S(=O)(=O)NC(CC(N)=O)C(=O)O)cc1 (stereo not given)	-29	7.5	2	-4	-2%
C=CCn1c(SCc2ccc(Cl)cc2)nc2cc(C(=O)N3CCC(C(N)=O)CC3)ccc2c1=O	-17	-0.7	61	-3	14%
CS(=O)(=O)Nc1ccc(N2CCN(c3ccc(C(F)(F)F)cn3)CC2)nc1	nt	6.1	4	nt	1%
Cc1nn(-c2ccc(Cl)cc2Cl)c(C)c1C(=O)O	nt	1.4	-3	5	6%
O=C(CCC(=O)c1cccs1)NCc1cccc(Cl)c1	nt	3.1	-14	nt	nt
CCOC(=O)c1c(NC(=O)CN2C(=O)CN(C)C2=O)sc(C)c1C	nt	1.9	2	-5	-10%

From PubChem BioAssay
